Screening data as filed in PubChem.
Beta apoptosis: inhibitors of cytokine-induced beta cell apoptosis, primary screen, luminescence. 300,000 tested, 0.8% active. protection from apoptosis, % (test concentration not listed). INS-1E cytokine-induced death, ATP luminescence, 48 h; percent of positive-control rescue, neutral wells zero;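 active = all replicates at 75% or more, or half of them and the mean; inconclusive = half reach 75% but not the mean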;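 note: 0% = cytokine-treated negative control wells and 100% = positive control rescue; higher means more ATP so stronger rescue from cytokine killing; wells of about 40 µL received 100 nL stock; the first replicate is given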
Calb FLC: C. albicans growth inhibition with fluconazole, primary screen, CaCi-2 strain, Alamar Blue fluorescence; C. albicans CaCi-2 (fluconazole-resistant clinical isolate) + fluconazole, 48 h; growth inhibition, % (no concentration beside the values); 300,000 tested, 0.57% active;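 active = most replicates above 75%; inconclusive = exactly half above 75%; inactive = most below 75%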;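 note: all wells also contain fluconazole at 8 µg/ml as a sub-toxic cotreatment; 0% = median of DMSO wells and 100% = median of geldanamycin control wells; wells of about 8 µL received 7.5 nL stock; the first replicate is given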
MLL AF4-AF9 inh: inhibitors of AF4 peptide binding to AF9, primary screen, biochemical, AlphaScreen, biotin-AF4 peptide, FLAG-AF9, single point. Protein AF-9 (Homo sapiens), P42568. inhibition, % at 10 µM. 350,000 tested, 0.47% active;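 active = every replicate reaching a set inhibition limit, whatever the replicate mean, cut at about 25% in these data; inconclusive = mean inhibition reaches that limit but some replicates miss it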;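 note: 0% = plate neutral control median and 100% = total signal loss; the record names both 10 and 1 µM as test concentration; the first replicate is given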
Target sequence (P42568 whole entry, looked up): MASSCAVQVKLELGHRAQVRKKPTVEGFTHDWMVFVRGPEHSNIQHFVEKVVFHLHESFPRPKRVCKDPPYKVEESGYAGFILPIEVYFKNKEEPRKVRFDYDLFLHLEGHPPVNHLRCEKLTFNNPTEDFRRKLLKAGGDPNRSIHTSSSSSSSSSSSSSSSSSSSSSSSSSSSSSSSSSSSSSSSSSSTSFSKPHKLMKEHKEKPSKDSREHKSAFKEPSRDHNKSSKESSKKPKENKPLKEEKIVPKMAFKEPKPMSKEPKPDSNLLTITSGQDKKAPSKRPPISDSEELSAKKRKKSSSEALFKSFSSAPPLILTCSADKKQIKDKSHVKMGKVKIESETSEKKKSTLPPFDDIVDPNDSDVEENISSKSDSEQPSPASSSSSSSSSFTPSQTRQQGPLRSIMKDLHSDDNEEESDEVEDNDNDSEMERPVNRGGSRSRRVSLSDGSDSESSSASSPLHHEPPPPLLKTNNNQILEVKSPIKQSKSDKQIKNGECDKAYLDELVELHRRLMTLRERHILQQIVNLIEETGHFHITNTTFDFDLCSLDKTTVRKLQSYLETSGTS
RanGTP-Imp inh: inhibitors of RanGTP-importin-beta interaction, primary screen, biochemical, FRET, CFP-Ran, YFP-importin-beta, homogeneous; cell-free CFP-Ran/YFP-importin-beta FRET ratio; 300,000 tested, 1.1% active; Ran GTPase (GTP-bound) - importin-beta complex; inhibition, % (concentration not given with the values);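 active = most replicates above 15%; inconclusive = exactly half above 15%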;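 note: 0% = DMSO wells and 100% = Ran loaded with GDP instead of GTP; wells of about 40 µL received 100 nL stock; the first replicate is given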
T cruzi repl: inhibitors of intracellular T. cruzi growth, primary screen, luminescence, NIH3T3 host cells; 300,000 tested, 1.4% active; inhibition, % (test concentration not listed); T. cruzi beta-gal in NIH3T3, 90 h;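 active = mean inhibition across valid replicates above about 55%, limit read from the data; inconclusive = mean below that limit but half or more replicates reach it; inactive = mean below it, under half of replicates reach it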;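 note: signal also drops with host cell toxicity which is not excluded here; 0% = plate median of DMSO wells and 100% = zero luminescence signal; higher percent means less beta-gal luminescence so fewer parasites; stock transfer was 50 nL into about 50 µL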
Vif TR-FRET: inhibitors of Vif binding to APOBEC3G peptide, primary screen, biochemical, TR-FRET, GST-Vif 1-94, biotin-A3G peptide, dose response retest (AID 1117319); inhibition, %; hits with a dose series show IC50 in µM; 260,000 tested, 0.57% active; TR-FRET GST-Vif / biotin-A3G peptide binding; higher % means a stronger effect; test concentration not given here; strong numbers were not always called active; Virion infectivity factor (Human immunodeficiency virus type 1 group M subtype B (isolate …;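 active = above the screen mean plus three standard deviations and confirmed in dose response; inconclusive = results disagree or hit not tested in dose response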;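 note: Vif residues 1-94 fused to GST binding biotinylated APOBEC3G peptide 110-148; 0% = full assay without inhibitor and 100% = GST in place of GST-Vif; retest series ran down from 100 µM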
rRNA inh HTS: reduced GFP signal of wild-type E. coli, primary screen, bacterial rRNA inhibitor project, GFP/RFP fluorescence, OD600, single point; GFP signal change (wild-type ribosome), % (test concentration not listed); AID 720706, 2013; E. coli WT GFP vs humanized-ribosome RFP mutants, 24 h; active compounds read low; DMSO median 0, no signal -100; 350,000 tested, 1.6% active;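 active = significant combined selectivity score with lowered wild-type GFP, culture density cut under 30%, mutant RFP and density less affected; inactive = any of these conditions unmet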; note: one replicate is shown; some compounds called inactive have numbers as strong as hits
Bfl-1 A1 inh: caspase 3/7 activation in MEF A1-2A-BIM cells, primary screen, A1 inhibitor project, cell-based, luminescence, HTS | Caspase-Glo 3/7 luminescence, 3 h; percent of clofoctol response, vehicle zero | caspase activation, % (concentration not given with the values) | 330,000 tested, 0.066% active;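 active = over half of replicate activation scores above 10%, or exactly half above 10 with the replicate mean above 10; inconclusive = replicate mean below 10 yet half the replicates above 10; inactive = over half of replicates below 10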;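 note: wells of about 30 µL received 50 nL stock; many hits fall short of the cut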
rRNA inh HTS OD600: second read-out of rRNA inh HTS, no call of its own (marks repeat the call); OD600 change, %; measured here: OD600 growth;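 optical density of the mix in the first replicate; 0 = DMSO median and -100 = no signal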
rRNA inh HTS RFP: recorded beside rRNA inh HTS, whose call it bears; RFP signal change, %; measured here: RFP humanized mutant strains;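 first replicate; 0 = DMSO median and -100 = no signal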
Starred values were filed as active, the others as inactive; u = inconclusive; x = not tested or not shown; & = joins results of further samples. The list is partial; rates above refer to the full screens.

SMILES	Beta apoptosis	Calb FLC	MLL AF4-AF9 inh	RanGTP-Imp inh	T cruzi repl	Vif TR-FRET	rRNA inh HTS	rRNA inh HTS OD600	rRNA inh HTS RFP	Bfl-1 A1 inh
Cc1nnc(SCc2cccc3ccccc23)s1	-3.6	11.4	-0.9	2.1	4.5	x	x	x	x	-0.6
COc1ccc(CNC(=O)c2sc3nc4c(c(C(F)(F)F)c3c2N)CCC4)cc1	-2.5	4.5	x	2.6	21.5	12.3%	x	x	x	1.6
Cc1ccc(C)c(N2CCN(C(=O)Cc3cn(C)c4ccccc34)CC2)c1	-0.7	5.2	x	1.4	1.8	-1.8%	x	x	x	0.5
Cc1cccc(Nc2c(F)c(F)c(F)c(F)c2C(=O)O)c1	-1.0	31.2	0.9	u	-4.8	8.4%	-30.5*	-23.1*	-2.8*	0.1
COc1ccc2c(c1OC)C(=O)N(c1ccc(F)cc1)C2	-2.3	0.2	-2.0	-1.5	11.4	4.8%	-8.3	5.3	-5.4	-2.1
N#CCc1nc2ccc(S(=O)(=O)N3CCOCC3)cc2s1	-5.8	-3.1	1.2	8.9	-5.3	2.2%	12.8	2.5	3.8	0.4
COC(=O)C1=C(C)N(c2cccc(OC)c2)C(=O)/C1=C\c1ccco1	-4.0	4.0	14.5	1.3	1.5	u	9.9	0.3	2.1	-0.2
CC(=O)c1cccc(NC(=O)CN2C(=O)C(=O)N(Cc3ccco3)C2=O)c1	-1.4	x	0.7	x	x	6.7%	4.3	19.8	0.2	0.2
Cc1cc(/C=C(/C#N)c2nc3ccccc3[nH]2)c(C)n1-c1cccc([N+](=O)[O-])c1	23.5	23.8	x	4.1	41.0	4.6%	x	x	x	-0.5
NC(=O)CSc1nnc(-c2ccc([N+](=O)[O-])cc2)o1	-6.5	-1.6	-1.8	1.1	7.3	4.9%	8.3	7.5	-0.6	-0.7
COc1ccc(C(CNC(=O)c2ccc(-n3cnnn3)cc2)N2CCOCC2)cc1 (stereo unspecified)	-1.2	3.3	x	1.4	2.3	2.9%	x	x	x	0.1
Cc1cc2cc(CNC(=O)c3ccc(S(=O)(=O)N4CCOCC4)cc3)ccc2n1C	2.0	-10.7	-2.7	-5.0	-0.7	3.6%	7.6	11.3	53.7	0.6
CCC(C)NC(=O)c1nn(Cc2ccccc2)c(=O)c2ccccc12 (stereo unspecified)	-5.9	-5.8	-1.3	3.3	25.6	x	1.5	3.0	-0.2	0.5
O=C(Nc1ccccc1)Oc1ccccc1N1CCOCC1	-5.8	-2.6	-2.9	-0.3	x	-6.7%	13.1	12.2	0.8	-0.1
COC(=O)c1cc(OC)c(OC)c(OC)c1N	-4.0	-4.4	x	1.9	-5.6	7.6%	x	x	x	0.4
C/C(=N/NC(=O)c1ccc(Br)s1)c1cccnc1	-3.7	-36.1	-0.1	6.3	-0.1	x	0.0	-2.3	-0.1	1.0
COc1ccc(C(=O)O)cc1S(=O)(=O)N(C)CCc1ccccn1	0.2	4.4	2.1	1.7	-9.6	1.6%	2.5	14.3	-1.9	-0.7
O=C(Cn1cnc2ccccc21)N/N=C/c1cccc([N+](=O)[O-])c1	4.2	-2.9	-1.6	4.1	-4.0	-0.5%	6.2	14.1	-1.3	0.0
COCC(C)NC(=O)c1noc2c1CCc1cc(OC)ccc1-2 (stereo unspecified)	-1.6	-11.6	x	-3.0	4.4	2.6%	x	x	x	-6.1
CC(=O)N(c1ccc2oc(=O)sc2c1)S(=O)(=O)c1ccccc1	-0.8	6.5	x	-0.5	-15.6	2.7%&7.8%	x	x	x	-0.2
O=C1CN(C(=O)c2ccccc2[N+](=O)[O-])C(c2ccccc2)c2cc(Br)ccc2N1 (stereo unspecified)	-4.8	-1.7	8.7	3.5	29.5	0.9%	-3.2	-15.5	6.4	-0.6
Cc1ccc(CCNC(=O)C2CC(c3ccccc3[N+](=O)[O-])=NO2)cc1 (stereo unspecified)	-3.7	-2.8	-14.3	1.0	24.4	1.3%	-28.3	-26.0	-8.3	-0.8
Cn1cc(CNCc2ccc(-n3cccn3)cc2)c(-c2ccccc2F)n1	3.3	1.8	0.1	-3.8	8.6	x	9.0	-2.2	4.3	-0.2
CCC(C)Nc1nnc(SCC(=O)c2c(N)n(C3CC3)c(=O)[nH]c2=O)s1 (stereo unspecified)	-4.4	x	-2.2	x	x	-0.4%	5.8	7.8	-2.6	3.0
COC(=O)C1=C(CS(=O)(=O)c2ccc(Cl)cc2)NC(=O)NC1c1ccc(O)c(OC)c1 (stereo unspecified)	-1.8	-6.2	-11.4	2.1	-4.5	x	0.8	-0.6	2.4	-0.6
CCCNC(=S)NNC(=O)c1cc(C2CC2)nc2ccccc12	9.4	7.2	0.1	3.8	1.5	x	0.4	10.9	-1.5	-0.2
Cc1cccc(C)c1NC(=O)C1(C)c2cccc[n+]2CC(=O)N1Cc1cccs1 (stereo unspecified)	-2.7	-8.6	0.0	1.6	11.8	2.4%	8.1	9.6	3.7	-0.7
O=C(CSc1nc(C(F)(F)F)cc(=O)[nH]1)NCc1ccc2c(c1)OCO2	x	-1.4	-20.6	0.9	-8.3	-6.2%	-4.3	0.7	3.1	-1.1
COc1cc(NC(=O)COC(=O)c2cc(S(=O)(=O)N3CCOCC3)ccc2F)cc(OC)c1	-2.9	x	-5.3	x	x	2.1%	-14.9	-4.8	2.5	-0.1
O=S1(=O)CCC(NC(=S)Nc2ccccc2)C1 (stereo unspecified)	x	25.0	-2.5	-0.5	-2.4	2.3%	23.4	17.6	-0.2	-1.0
CCCn1nnnc1SCC(=O)NCc1cccs1	-5.7	-7.3	x	-4.2	-15.3	-1.4%	x	x	x	1.2
CCOc1ccc(-c2ncncc2-c2ccc(OC)cc2)c(O)c1	x	-22.3	x	0.1	23.7	0.7%	x	x	x	-0.1
C=CCNC(=S)N1CCC(C(=O)c2ccc(OC)cc2)CC1	-4.1	-15.9	2.5	-3.7	4.6	2.3%	1.7	-1.7	1.5	0.8
Cc1cc(-c2sccc2Br)nc(-n2cccc2)n1	x	9.9	0.1	-1.3	-1.3	-5.8%	9.2	-19.0	6.2	x
CC(Cl)C(=O)Nc1ccccc1C#N (stereo unspecified)	-2.4	0.7	1.2	5.8	-13.3	x	13.8	7.1	-3.8	0.5
CNC(=O)C(=O)NCC1OCCN1S(=O)(=O)c1ccc(OC)c(OC)c1 (stereo unspecified)	-5.6	2.3	0.5	-1.4	-2.3	x	20.2	11.3	8.3	-0.6
COc1ccccc1C1C(C(=O)c2cc3ccccc3o2)=C(O)C(=O)N1CCN(C)C (stereo unspecified)	x	-6.1	x	-1.1	-5.5	1.4%	x	x	x	1.7
COc1ccccc1NC(=S)NC(=O)CCCOc1ccc(Cl)cc1Cl	-5.4	-5.0	2.7	1.3	18.3	25.5%	-5.0	-7.8	-0.2	0.2
COc1ccccc1C(=O)Nc1cccc(SC)c1	-5.3	-5.5	x	-5.5	1.0	-0.9%	x	x	x	-0.2
Cn1c(=O)n(CCc2ccccc2)c(=O)c2c1nc1n2CCN1Cc1ccco1	-3.6	-5.4	x	1.1	-25.2	21.0%	x	x	x	-0.8
CC(C)CN1CCN(Cc2ccc(Oc3ncccn3)cc2)CC1CCO (stereo unspecified)	-6.5	0.4	3.2	-4.0	-10.1	1.2%	2.4	6.7	3.9	1.6
CCn1c(SCC(=O)N2CCN(c3ccc(F)cc3)CC2)nnc1-c1ccncc1	x	2.3	x	11.3	-13.4	3.2%&-2.8%	x	x	x	x
COC(=O)CSc1nc2c(c(=O)n(C)c(=O)n2C)n1CCCc1ccccc1	-7.9	5.1	x	6.9	8.8	4.8%	x	x	x	-0.3
COc1ccc(CCNc2ncccc2C#N)cc1OC	-3.9	18.8	-0.7	4.2	-13.3	-3.0%	5.0	5.5	3.8	-5.3
CC(Oc1cccnc1[N+](=O)[O-])C(=O)N1CCc2ccccc21 (stereo unspecified)	1.5	x	3.0	x	x	12.1%	-8.2	0.0	-2.1	1.5
CNC(=S)N/N=C/c1cn(CCOc2ccc(OC)cc2)c2ccccc12	7.7	3.9	x	-0.1	29.1	x	x	x	x	0.2
COc1ccc(OC)c(S(=O)(=O)n2ccnc2C)c1	-1.0	-13.6	x	27.0*	-14.1	3.4%	x	x	x	0.6
COc1ccc(S(=O)(=O)Nc2cc(OC)c(NC(=O)c3ccco3)cc2OC)cc1	-0.9	14.6	x	4.2	7.5	5.3%	x	x	x	-0.4
CC(NC(=O)CN(C)S(=O)(=O)c1ccc(Br)s1)c1ccccc1 (stereo unspecified)	-0.8	-4.0	-2.9	-2.3	-3.0	x	-0.3	-6.3	1.0	-0.5
CCCSc1nnc(N2C(=O)C(O)=C(C(=O)c3ccco3)C2c2ccccc2F)s1 (stereo unspecified)	-2.3	-9.7	-7.0	-10.0	-5.5	x	-42.3	-74.1	-9.2	-0.2
COC(=O)C1CCN(C(=O)NC2CCCCC2)CC1	8.5	-2.9	3.3	-2.4	-4.8	-4.3%	8.6	1.3	-4.3	-0.4
O=C(CN1C(=O)c2ccccc2S1(=O)=O)N1CCN(c2ccccc2F)CC1	0.9	0.6	x	-5.1	-5.8	-4.4%	x	x	x	-0.6
